High-throughput results deposited in PubChem by National Center for Advancing Translational Sciences (NCATS).
SARS PLpro yeast – qHTS of Yeast-based Assay for SARS-CoV PLP | Potency, µM (doses to about 32.9 µM), inactives show top-dose activity, positive = growth rescue | actives 0.19% (n = 330,000) | S. cerevisiae expressing SARS-CoV PLpro, growth rescue; control for the full effect not named in the record; further: 0% is about no effect; nearly all actives have a fitted effect of over 55% in size; growth read by luminescence after 48 h
LASV entry inh – qHTS for Inhibitors of binding or entry into cells for Lassa Virus; Lassa virus pseudotype entry inhibition, cell reporter; control for the full effect not named in the record; Potency, µM (top dose mostly 37.9 µM), for inactives: at the highest dose activity change, negative = inhibition, usual class: inhibitors; AID 540256, 2011; actives 1.2% (n = 300,000); active means well fitted inhibition curve with a large enough effect; inconclusive means small, poorly fitted or top-dose-only effect, or effect the other way; inactive means flat fitted curve, though single readings scatter; tested in HEK293 cells; further: on the % scale 0 is the no-effect control and ±100 the full control effect; nearly all actives have a fitted effect of over 50% in size; luciferase read-out
2A StopGo – High Throughput Screening for Foot and Mouth Disease Virus Antivirals. actives 1.2% (n = 410,000). human cells with a luciferase reporter of 2A StopGo recoding; control for the full effect not named in the record. Potency, µM (highest dose often 57.9 µM), for inactives: at the top dose signal change, negative = less light; active = well fitted falling curve with a large enough effect; inconclusive = small, poorly fitted or top-dose-only effect; inactive = no such curve, though single readings can be large or run the other way; tested in HEK293T cells; further: on the % scale 0 is the no-effect control and ±100 the full control effect; nearly all actives have a fitted effect of over 45% in size; luciferase light after 4 h
Cruzain inh Det – qHTS Assay for Promiscuous and Specific Inhibitors of Cruzain (with detergent) | Cruzipain (Trypanosoma cruzi), P25779 | purified cruzain, Z-FR-AMC fluorescence, 0.01% Triton | Potency, µM, without a hit: max response, negative = inhibition, hits mostly inhibitors | actives 0.43% (n = 200,000) | AID 1478, 2009; active means well fitted curve in the direction sought with a large enough effect; inconclusive means small, poorly fitted or top-dose-only effect, or another doubt; inactive means no such curve, though single readings can be large; an effect the other way counts as inactive or inconclusive;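 further: plate controls were neutral wells for no effect and buffer without enzyme for full effect; nearly all actives have a fitted effect of over 40% in size; top concentration of the series not given in the record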
Target sequence (P25779 123-467 limits assumed): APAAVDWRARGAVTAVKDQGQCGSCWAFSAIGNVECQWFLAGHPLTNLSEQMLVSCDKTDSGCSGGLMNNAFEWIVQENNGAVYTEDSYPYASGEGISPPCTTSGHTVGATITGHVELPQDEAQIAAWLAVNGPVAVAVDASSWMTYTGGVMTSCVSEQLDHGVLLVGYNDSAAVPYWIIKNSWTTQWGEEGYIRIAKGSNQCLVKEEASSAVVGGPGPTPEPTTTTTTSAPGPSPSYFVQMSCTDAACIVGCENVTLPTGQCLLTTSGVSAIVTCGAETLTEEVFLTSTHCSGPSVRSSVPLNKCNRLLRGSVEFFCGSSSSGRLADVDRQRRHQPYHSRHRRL
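Sodium acetate buffer (100 mM, pH 5.5) containing 5 mM DTT and 0.01% Triton X-100 hosted 1.5 nM cruzain and test compound for 15 min at room temperature. Cleavage of 2 uM Z-FR-AMC was then tracked by fluorescence.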
NS1 function inh – qHTS Assay for Inhibitors of Influenza NS1 Protein Function | Potency, µM (top dose mostly 46.1 µM), without a hit: at the top dose activity, positive = more growth | S. cerevisiae slowed by influenza A NS1, growth recovery by OD600 | actives 0.4% (n = 270,000); further: actives are rising curves; nearly all actives have a fitted effect of over 50% in size
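Read-out: OD600 growth recovery of NS1-expressing budding yeast. Cells grown overnight at 30C in -URA glucose medium, washed, resuspended and diluted 1:100 in 2% galactose assay medium, pH 6.0. Same strain lacking NS1 served as positive control.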
RE007 growth inh – qHTS Assay for Inhibitors of the HIV-1 protein Vpr; S. pombe RE007 Vpr strain, BacTiter-Glo ATP luminescence, 24 h; control for the full effect not named in the record; Potency, µM (titrated, usually from 92.2 µM), for the others: at the top dose activity change, negative = less growth; actives 0.21% (n = 360,000); active = well fitted falling curve with a large enough effect; inconclusive = small, poorly fitted or top-dose-only effect; inactive = no such curve, though single readings can be large or run the other way;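 further: on the % scale 0 is the no-effect control and ±100 the full control effect; nearly all actives have a fitted effect of over 50% in size; the assay follows cell death caused by Vpr and the record does not say whether a fall means rescue or toxicity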
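Fission yeast strain RE007, carrying one chromosomally integrated HIV-1 vpr copy, was seeded at OD 0.01 in PMG+AL medium with 23 nL pinned compound. After 24 h at 30 °C and 99% humidity, viability was read by BacTiter-Glo luminescence.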
Cruzain inh noDet – qHTS Assay for Promiscuous and Specific Inhibitors of Cruzain (without detergent). Cruzipain (Trypanosoma cruzi), P25779. purified cruzain, Z-FR-AMC fluorescence, no detergent. Potency, µM, for inactives: max response, negative = inhibition, usual class: inhibitors. actives 2.3% (n = 200,000); active means well fitted curve in the direction sought with a large enough effect; inconclusive means small, poorly fitted or top-dose-only effect, or another doubt; inactive means no such curve, though single readings can be large; an effect the other way counts as inactive or inconclusive;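 further: plate controls were enzyme without inhibitor for no effect and buffer without enzyme for full effect; nearly all actives have a fitted effect of over 40% in size; top concentration of the series not given in the record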
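Detergent-free condition (0.00005% Triton X-100) in acetate buffer pH 5.5 with DTT. 1.5 nM enzyme and compound were pre-mixed 15 min, then 2 uM Z-FR-AMC substrate added; reaction progress from fluorescence change between first and third reads (60 s).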
Marburg entry inh – qHTS for inhibitors of binding or entry into cells for Marburg Virus; Marburg virus pseudotyped entry inhibition, cell reporter; control for the full effect not named in the record; about a third of the inactives were read at about 46 µM; Potency, µM (top dose mostly 37.8 µM), without a hit: at the top dose activity change, negative = inhibition, most hits filed as inhibitors; actives 1.8% (n = 300,000); active = well fitted inhibition curve with a large enough effect; inconclusive = small, poorly fitted or top-dose-only effect, or effect the other way; inactive = flat fitted curve, though single readings scatter; tested in HEK293 cells; about a fifth of its hits are not listed in these tables; further: on the % scale 0 is the no-effect control and ±100 the full control effect; luciferase read-out
* = called active by the depositor; ? = inconclusive; . = not tested or not shown; & = joins results of further samples; [ ] = another dose, or the depositor's remark. Unless noted, the call rests on the fitted dose curve; in most records, active means well fitted rising curve with a large enough effect; inconclusive means small, poorly fitted or top-dose-only effect; inactive means no such curve, though single readings can be large or run the other way. Potency means the concentration at half of the fitted maximal effect.

SMILES	SARS PLpro yeast	LASV entry inh	2A StopGo	Cruzain inh Det	NS1 function inh	RE007 growth inh	Cruzain inh noDet	Marburg entry inh
CC(=O)Nc1cc(NC(C)=O)cc(C(=O)N2CCCC3CCCCC32)c1 (stereo not given)	2%	0%[46.1 µM]	12%	.	23%	8%	.	18%[46.1 µM]
Cc1cccc(NS(=O)(=O)c2ccc(C)c(C(=O)NCCCN3CCOCC3)c2)c1	5%	19%	15%	.	.	-2%	.	-6%
COc1cc(C(C(=O)NC2CCCCC2)N(Cc2ccco2)C(=O)c2cnccn2)cc(OC)c1OC (stereo not given)	2%	2%	-11%	.	1%	0%	.	-17%[46.1 µM]
Cc1nc(Nc2ccc(F)cc2)nc(Nc2ccc(F)cc2)c1[N+](=O)[O-]	-2%	2%	?	.	2%	9%	.	4%[46.1 µM]
CCCCN(C)C(=O)Cn1cnc2sc(C)cc2c1=O	-1%	-9%	-3%	7.0%	2%	1%	0%	6%
Cc1cc(S(=O)(=O)NCC(C)C)ccc1OCC(=O)N1CCN(Cc2ccccc2)CC1	0%	?	-1%	4.0%	-31%	-10%	8%	?
COc1ccc(Cc2nnc(Nc3ccccc3)s2)cc1Br	-1%	.	-3%	.	-5%	.	.	-3%
O=[N+]([O-])c1cc(S(=O)(=O)Nc2ccccc2)ccc1Nc1ccccc1	.	?	3%	.	.	5%	.	?
CCSc1cc(N2CCCC2)nc(-c2ccccc2Cl)n1	-37%	14%	-5%	-2.6%	-22%	?	1%	18%
COc1ccc(C(=O)NCCN2CCOCC2)cc1OC	13%	-11%	-7%	-0.9%	16%	8%	13%	13%
Cn1c(=O)c2c(=O)cc(N)[nH]c2n(C)c1=O	2%	.	-22%	.	-1%	15%	.	.
CCOC(=O)C(=CNc1ccc(C(F)(F)F)cc1Cl)C(=O)OCC	1%	-3%	34%[activator]	.	1%	3%	.	9%[46.1 µM]
COc1ccc(NC(=S)Nc2cccc(Cl)c2)cc1OC	0%	-15%	43%[activator]	.	-4%	-20%	.	-4%[46.1 µM]
O=C(Cc1ccccc1)Nc1cc(-c2nc3cc(Cl)ccc3o2)ccc1Cl	.	-6%[46.1 µM]	-3%	-0.2%	.	.	-4%	?
COc1cc2c(cc1NC(=O)CSc1ccccc1)oc1ccccc12	-26%	1%	73%[activator]	-7.5%	2%	-4%	-3%	3%
Cc1nn(CC(=O)N2CCC(C)CC2)c(=O)c2nn(-c3ccccc3)c(C)c12	-2%	.	-6%	.	3%	-5%	.	.
O=C(Cc1ccccc1)N1CCN(Cc2cccc(Cl)c2)CC1	2%	22%	-17%	.	?	-5%	.	4%
CC(C)CNS(=O)(=O)c1ccc(CCC(=O)N2CCN(Cc3ccc4c(c3)OCO4)CC2)cc1	2%	?	?	-0.9%	-6%	-4%	0%	?
COc1ccc(CN2CCC(=O)N([C@H](CO)Cc3ccccc3)CC2)cc1	-2%	.	-21%	.	-4%	1%	.	.
CCCCOc1ccc(C(=O)OCC(=O)Nc2cc(C)on2)cc1	-1%	.	1%	.	.	-11%	.	0%[46.1 µM]
CN(C)c1cc[n+](CC(=O)c2ccc(-c3ccccc3)cc2)cc1	-9%	?	?	.	.	-20%	.	?
Oc1ccc(Nc2nc(-c3ccc(Cl)cc3)nc3ccccc23)cc1	.	?	7%	-8.1%	.	.	?	?
O=C(CSc1nnc(-c2ccc(Cl)s2)o1)N1CCc2ccccc21	2%	.	.	1.8%	-1%	.	?	-2%
O=C(O)c1ccccc1NN=Cc1ccccc1	.	-17%[46.1 µM]	16%	.	.	-2%	.	?
CCN(c1ccccc1)S(=O)(=O)c1cccc(C(=O)NCc2ccccc2CN2CCOCC2)c1	-4%	?	-25%	.	.	-10%	.	?

Further structures:
SMILES	SARS PLpro yeast	LASV entry inh	2A StopGo	Cruzain inh Det	NS1 function inh	RE007 growth inh	Cruzain inh noDet	Marburg entry inh
CC(C)CC(=O)c1c[nH]c(C(=O)O)c1	1%	-10%	-9%	.	9%	15%	.	?
CCCC(=O)Nc1nnc(-c2ccccc2)o1	1%	.	25%	.	3%	20%	.	.
CCc1cc(C(=O)OC)c(NC(=O)c2ccoc2C)s1	0%	.	-24%	.	-9%	5%	.	.
O=c1[nH]c(CN2CCN(c3ccc(O)cc3)CC2)nc2scc(-c3ccc(Cl)cc3)c12	-4%	.	-29%	.	?	-6%	.	.
NNC(=O)c1ccc(COc2ccc3ccccc3c2)cc1	0%	.	47%[activator]	.	-36%	-16%	.	.
O=[N+]([O-])c1ccc2ncnc(N3CCN(Cc4ccc5c(c4)OCO5)CC3)c2c1	-4%	.	?	.	-20%	3%	.	.
CN1CCN(c2c(F)cc3c(=O)c(C(=O)O)cn4c3c2OCN4C)CC1	0%	.	-3%	.	-2%	-7%	.	.
COc1ccc(S(=O)(=O)N2CCCC(C(F)(F)F)C2)cc1 (stereo not given)	0%	.	-10%	.	2%	6%	.	.
Cc1ccccc1C(=O)Nc1ccc(OCc2cc(=O)n3cccc(C)c3n2)cc1	.	-15%[46.1 µM]	-17%	1.0%	.	.	5%	.
COc1ccc(C(=O)Nc2ccc(N3CCOCC3)cc2)cc1S(=O)(=O)N1CCCC1	13%	-18%	-21%	.	.	3%	.	-10%
Cc1cccc(C(=O)Nc2cccc(OCc3cc(=O)n4ccccc4n3)c2)c1	.	3%[46.1 µM]	-7%	5.1%	.	.	9%	.
CCOc1ccc(-n2c(SCC(=O)Nc3ccc4c(c3)OCCO4)nc3c(c2=O)SCC3)cc1	-8%	-11%	5%	-4.9%	-1%	1%	-29%	0%
O=C(c1cnccn1)N(Cc1cccs1)C1(C(=O)NC2CCCC2)CCCCC1	-13%	16%	-13%	2.8%	0%	9%	2%	7%
O=C(NNS(=O)(=O)c1ccc(Cl)cc1)c1sccc1-n1cccc1	2%	-1%	22%	0.8%	20%	-8%	-10%	-9%
CC(C)(CNC(=O)/C=C/c1ccc(F)cc1)CNC(=O)/C=C/c1ccc(F)cc1	-3%	-12%	6%	-8.8%	-2%	-9%	20%	1%
COc1cccc(OC)c1C(=O)NC(=S)NCc1cccnc1	-1%	.	-20%	.	-14%	-7%	.	.
COC(=O)c1ccc(COC(=O)CCC(=O)c2cccs2)cc1	5%	?	41%[activator]	-6.5%	-4%	-7%	-12%	?
O=C(NCCc1ccccc1)c1c[nH]c2ccc(S(=O)(=O)Nc3ccccc3F)cc2c1=O	.	?	18%	-3.3%	.	.	3%	7%[46.1 µM]
S=c1[nH]nc(-c2ccccc2Br)n1Cc1ccccc1	2%	.	-1%	.	-31%	3%	.	.
Cc1cc(C(=O)N/N=C/c2ccc(OC(=O)c3ccccc3Br)cc2)n[nH]1	0%	-11%	-1%	.	-2%	-7%	.	?
O=C(NNC(=S)NCC1CCCO1)c1cc(Br)ccc1Cl (stereo not given)	9%	6%	-15%	.	18%	-4%	.	2%
COc1ccc(CC(=O)n2[nH]c(=O)ccc2=O)cc1OC	0%	?	-2%	.	5%	6%	.	9%&9%[46.1 µM]
O=C(Nc1ccc(Cl)c(Cl)c1)Nc1ccccc1O	-30%	.	34%[activator]	.	-136%	-21%	.	.
Cc1cccc(Nc2c(-c3cccs3)nc3nc(C)cc(C)n23)c1	.	2%[46.1 µM]	21%	-15%	.	.	?	?
CCOc1ccc(-n2nc(CO)c(C(=O)NCc3cccnc3)n2)cc1	.	0%[46.1 µM]	11%	-3.9%	.	.	-10%	?

The results go on.
SMILES	SARS PLpro yeast	LASV entry inh	2A StopGo	Cruzain inh Det	NS1 function inh	RE007 growth inh	Cruzain inh noDet	Marburg entry inh
O=C(CBr)Nc1c2c(nn1-c1ccccc1)CSC2	-6%	2%	-7%	.	12%	-8%	.	17%[46.1 µM]
Cc1c(NC(=O)Nc2ccc(Cl)c(Cl)c2)sc2nc3n(c(=O)c12)CCC(C)CC3 (stereo not given)	.	.	-23%	-0.6%	.	.	-10%	-1%[46.1 µM]
O=C(NCc1ccc(Cl)cc1)C1CCN(C(=O)Cc2ccccc2)CC1	?	-5%	-19%	.	-2%	-7%	.	1%
O=C(CC1N=C(Cc2ccccc2)NNC1=O)N/N=C/c1ccc([N+](=O)[O-])cc1 (stereo not given)	-1%	12%	-19%	.	3%	-4%	.	24%
Cc1cc(C(=O)CSc2ccc(F)cc2)cc(C)c1O	-2%	20%	43%[activator]	.	-9%	-15%	.	5%[46.1 µM]
COc1ccccc1Cc1nnnn1CC(=O)O	7%	-9%	5%	1.5%	5%	-1%	-7%	6%
O=C(NCC(=O)N(CCc1ccccc1)C(C(=O)NC1CCCC1)c1cccnc1)c1ccco1 (stereo not given)	14%	-11%	19%	0.5%	-12%	-2%	8%	-4%
COc1ccc(CCN(C)Cc2c(F)cccc2F)cc1OC	-2%	-17%	-6%	5.1%	-1%	0%	-4%	-15%
O=C(Nc1cccc(N2C(=O)C3C4C=CC(C4)C3C2=O)c1)c1cccs1 (stereo not given)	0%	.	?	.	?	-5%	.	.
O=C(C[n+]1ccc(/C=N/O)cc1)N(Cc1ccccc1)Cc1ccccc1	0%	-5%	-20%	.	.	-6%	.	-1%[46.1 µM]
Clc1ccc(NC2=NCCCS2)cc1Cl	0%	?	5%	.	-1%	-20%	.	-2%[46.1 µM]
CC1CCCN(S(=O)(=O)CCNC(=O)c2ccc3c(c2)OCO3)C1 (stereo not given)	-6%	4%	-7%	.	.	0%	.	-15%
Cc1csc(SCC(=O)c2c(N)n(C)c(=O)n(C)c2=O)n1	7%	3%	4%	3.9%	-2%	-3%	-6%	?
CCOC(=O)c1cc(CC)sc1NC(=O)Cc1ccccc1	-14%	-3%	-3%	-8.3%	-7%	-11%	-1%	-16%
COc1ccc(C)cc1NC(=O)N1CCC(CO)(CC2CCCCO2)CC1 (stereo not given)	0%	1%	-6%	.	-1%	-7%	.	-17%
